# Vif A3G – HIV-1 Vif–A3G interaction blockers – biochemical, TR-FRET, GST-Vif 1-94, biotin-A3G peptide, dose response retest, primary screen (AID 1117319) | TR-FRET GST-Vif / biotin-A3G peptide binding; higher % means a stronger effect; test concentration not given here; strong numbers were not always called active | inhibition, %; hits with a dose series show IC50 in µM | actives 0.57% (n = 260,000);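 active = above the screen mean plus three standard deviations and confirmed in dose response; inconclusive = results disagree or hit not tested in dose response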;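 also: Vif residues 1-94 fused to GST binding biotinylated APOBEC3G peptide 110-148; 0% = full assay without inhibitor and 100% = GST in place of GST-Vif; retest series ran down from 100 µM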
# AF4-AF9 inh – blocks AF4 peptide binding to human AF9. P42568. AlphaScreen, biotin-AF4 peptide binding to FLAG-AF9. inhibition, % at 10 µM. actives 0.47% (n = 350,000). AID 651704;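 active = every replicate reaching a set inhibition limit, whatever the replicate mean, cut at about 25% in these data; inconclusive = mean inhibition reaches that limit but some replicates miss it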;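 also: 0% = plate neutral control median and 100% = total signal loss; the record names both 10 and 1 µM as test concentration; the first replicate is given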
# Target sequence (P42568 whole entry, looked up): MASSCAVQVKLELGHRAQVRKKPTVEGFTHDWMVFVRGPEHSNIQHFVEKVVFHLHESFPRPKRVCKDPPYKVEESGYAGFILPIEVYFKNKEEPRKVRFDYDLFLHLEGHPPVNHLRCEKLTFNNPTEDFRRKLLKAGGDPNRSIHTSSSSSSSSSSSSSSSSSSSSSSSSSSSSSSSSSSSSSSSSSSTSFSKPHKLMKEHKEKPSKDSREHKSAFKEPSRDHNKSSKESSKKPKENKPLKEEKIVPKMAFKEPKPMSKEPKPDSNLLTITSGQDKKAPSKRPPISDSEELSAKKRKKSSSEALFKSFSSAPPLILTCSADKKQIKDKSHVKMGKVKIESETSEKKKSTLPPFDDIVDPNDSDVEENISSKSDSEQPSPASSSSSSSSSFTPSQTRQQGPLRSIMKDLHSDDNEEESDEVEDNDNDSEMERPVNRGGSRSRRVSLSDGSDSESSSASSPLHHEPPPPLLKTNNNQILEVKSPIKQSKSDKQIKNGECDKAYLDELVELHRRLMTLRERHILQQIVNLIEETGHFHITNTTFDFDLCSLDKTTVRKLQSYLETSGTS
# UCH37 DUB inh – inhibitors of human deubiquitinating enzyme UCH37 | purified proteasome/UCH37, Ub-AMC cleavage fluorescence | inhibition, % (test concentration not listed) | actives 0.33% (n = 330,000);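 active = mean of two replicates above 20%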;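 also: 0% = compound-free wells with enzyme and 100% = wells lacking proteasome; stock transfer was 100 nL into about 20 µL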
# Target sequence (Q9Y5K5 whole entry, looked up): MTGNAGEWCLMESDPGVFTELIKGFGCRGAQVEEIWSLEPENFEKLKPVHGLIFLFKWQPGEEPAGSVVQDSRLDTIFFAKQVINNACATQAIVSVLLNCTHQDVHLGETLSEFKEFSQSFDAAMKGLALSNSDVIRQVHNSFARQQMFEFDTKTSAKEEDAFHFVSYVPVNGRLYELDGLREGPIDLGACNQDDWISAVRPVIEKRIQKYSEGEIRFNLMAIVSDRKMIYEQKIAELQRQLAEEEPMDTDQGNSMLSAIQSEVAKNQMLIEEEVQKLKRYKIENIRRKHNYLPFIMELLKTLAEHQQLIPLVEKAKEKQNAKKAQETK
#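 assay system = human UCH37 enzyme supplied as purified proteasome complex | amount = proteasome at 0.15 nM in the dispensed enzyme solution | schedule = 30 min compound-proteasome preincubation then 25 min substrate reaction, room temperature | measured by = fluorescence, ex 355 nm, em 460 nm | benchmarks = no-proteasome wells (full inhibition) and compound-free wells (no inhibition)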
# Ecoli growth – inhibitors of Escherichia coli growth; OD600, 23 h; stronger effect = lower value; OD600 absorbance (test concentration not listed); actives 0.21% (n = 330,000);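 active = OD600 absorbance below the run mean of sample wells minus 3.6 SD, in any replicate, cut at about 0.56 in these data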;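 also: stock transfer was 300 nL into about 60 µL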
# HNF4A DNA FP – change in binding of human HNF4 alpha to DNA | P41235 | HNF4a-FITC DNA binding, fluorescence polarization, 1 h | activity change, % at 10 µM | actives 0.3% (n = 360,000) | AID 1224865; in the data active = activity change above about 30%, passing the limit was not always enough;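 also: controls were the assay level and a saturating level of protein; the project sought stronger binding though the title names inhibitors; some compounds called inactive have numbers as strong as hits; positive values seem to mean higher polarization but the record does not say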
# RanGTP-Impb inh – disruptors of Ran-importin-beta complex formation – biochemical, FRET, CFP-Ran, YFP-importin-beta, homogeneous, primary screen | inhibition, % (no concentration beside the values) | cell-free CFP-Ran/YFP-importin-beta FRET ratio | actives 1.1% (n = 300,000);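 active = most replicates above 15%; inconclusive = exactly half above 15%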;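 also: 0% = DMSO wells and 100% = Ran loaded with GDP instead of GTP; wells of about 40 µL received 100 nL stock; the first replicate is given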
# FGF22 binding – FGF22 (human) thermal shift binding; Q9HCT0; recombinant FGF22 thermal shift, SYPRO orange fluorescence; percent of sucrose octasulfate shift, DMSO zero; calls only at 9.99 µM; actives 1.5% (n = 340,000);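 active = melting point raised past a set limit in the mean and every replicate; inconclusive = no clear call; three in four hits are not shown here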
# Target sequence (Q9HCT0 whole entry, looked up): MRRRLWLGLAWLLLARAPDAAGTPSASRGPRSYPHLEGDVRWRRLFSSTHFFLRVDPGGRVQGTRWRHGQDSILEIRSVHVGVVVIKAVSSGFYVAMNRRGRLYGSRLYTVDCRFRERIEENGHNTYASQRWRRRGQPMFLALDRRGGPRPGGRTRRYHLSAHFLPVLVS
# * hit, by the source's call; i = inactive; ? = inconclusive; . = no result given; & = joins results of further samples. Some of the compounds tested. The share of hits here may be higher or lower than overall.
SMILES,Vif A3G,AF4-AF9 inh,UCH37 DUB inh,Ecoli growth,HNF4A DNA FP,RanGTP-Impb inh,FGF22 binding
O=C(c1ccc(S(=O)(=O)c2ccccc2)cc1)N1CCCCCC1,0%,.,0.5,0.63,-1.5,-1.5,.
O=C(OCc1cn([C@H]2C[C@H](c3ccccc3)N(CC3CCCCC3)C[C@@H]2O)nn1)c1ccccc1,3%,-2.1,.,.,2.2,.,i
COc1cc(C2C3=C(CC(C)(C)CC3=O)NC3=C2C(=O)c2ccccc23)ccc1O (stereo unspecified),5%,9.0,7.5,0.7,0.2,2.8,i
COc1cc(C(=O)NC(C)c2ccc(S(N)(=O)=O)cc2)ccc1OCC(=O)N1CCOCC1 (stereo unspecified),.,-0.8,2.3,0.73,-3.0,-0.2,i
O=C(COC(=O)CNS(=O)(=O)c1ccc(Br)cc1Cl)NC1CC1,21%,-0.3,1.1,0.7,-3.6,0.3,i
O=C(O)CCC(=O)Nc1cccc(-c2nnc(-c3ccccc3)o2)c1,-1%,-16,4.9,0.68,0.0,0.7,i
CCOC(=O)C1(C)CCN1C(=O)/C=C/c1ccccc1 (stereo unspecified),.,-3.3,.,.,-0.9,.,i
O=C(Nc1nnc(-c2ccc(Cl)s2)o1)C1CCCCC1,.,2.3,-8.1,0.74,4.6,5.3,.
CCCOc1ccc(C(=O)NNC(=S)NC(C)=O)cc1,0%,.,2.6,0.27*,-1.3,3.9,.
CC(=O)Nc1ccc(CN2C(=O)C(Cc3ccccc3)ON=C2c2ncccc2C)cc1 (stereo unspecified),.,1.5,.,.,1.0,.,i
Cc1nc2ccc(C(=O)Nc3ccccc3Cl)cc2s1,-6%,-1.0,5.2,0.66,0.2,7.1,i
O=[N+]([O-])c1ccc(C2=Nn3c(Cn4nnc5ccccc54)nnc3SC2)cc1,-10%,0.7,3.8,0.63,0.2,0.1,i

# Brought forward from above: six compounds, followed by the next part.
SMILES,Vif A3G,AF4-AF9 inh,UCH37 DUB inh,Ecoli growth,HNF4A DNA FP,RanGTP-Impb inh,FGF22 binding
CCOC(=O)C1(C)CCN1C(=O)/C=C/c1ccccc1 (stereo unspecified),.,-3.3,.,.,-0.9,.,i
O=C(Nc1nnc(-c2ccc(Cl)s2)o1)C1CCCCC1,.,2.3,-8.1,0.74,4.6,5.3,.
CCCOc1ccc(C(=O)NNC(=S)NC(C)=O)cc1,0%,.,2.6,0.27*,-1.3,3.9,.
CC(=O)Nc1ccc(CN2C(=O)C(Cc3ccccc3)ON=C2c2ncccc2C)cc1 (stereo unspecified),.,1.5,.,.,1.0,.,i
Cc1nc2ccc(C(=O)Nc3ccccc3Cl)cc2s1,-6%,-1.0,5.2,0.66,0.2,7.1,i
O=[N+]([O-])c1ccc(C2=Nn3c(Cn4nnc5ccccc54)nnc3SC2)cc1,-10%,0.7,3.8,0.63,0.2,0.1,i
Nc1nnc(SCC(=O)OCC(=O)Nc2ccc(Br)cc2)s1,.,1.1,1.7,0.67,3.9,0.5,i
Cc1ccc(-n2c(C)cc(=O)cc2C)cc1[N+](=O)[O-],.,1.5,-0.5,0.7,-1.4,0.2,i
CC1O[C@@H](O[C@H](C)CC/C=C/C(=O)O)C(O)C[C@H]1O (stereo partly specified),.,0.0,3.6,.,-2.8,?,i
COc1ccc(CN2CCN(C(=O)CC(C)C)CC2)cc1OC,30%,.,-0.8,0.69,-4.2,2.8,.
CCC1Oc2ccccc2N(CC(=O)Nc2ccc(OC)cc2OC)C1=O (stereo unspecified),33%,.,2.0,0.64,4.7,-0.3,.
CN(C)C(CNC(=O)CCNC(=O)c1ccc(Cl)cc1)c1ccco1 (stereo unspecified),5%,-0.9,-1.9,0.73,-4.3,2.1,i
Cn1ccc(C(=O)Nc2sc3c(c2C(N)=O)CCCCC3)n1,5%,-2.3,.,.,-0.7,?,i
C=C(c1ccc2nc(NC(=O)OC)[nH]c2c1)c1cccs1,-5%,-1.6,.,.,7.2,.,i
N#Cc1ccc(C#Cc2ccc3oc4ccccc4c(=O)c3c2)cc1,.,-6.1,-2.6,0.66,1.3,.,i
COC(=O)C1(CCSC)NC(c2ccc(O)cc2)C2C(=O)N(c3ccc4c(c3)OCCO4)C(=O)C21 (stereo unspecified),?,.,-0.8,0.68,-1.0,2.5,.
CCN1CCCC(NC(=O)c2cc([N+](=O)[O-])ccc2OC)C1 (stereo unspecified),.,.,-2.6,.,2.4,-0.9,.
Oc1ccc(-c2[nH]ncc2-c2ccc(Br)cc2)c(O)c1,0%,2.2,3.0,0.66,3.1,?,i
CN(C)CCCN(Cc1ccc2c(c1)OCO2)C(=O)NC1CCCCC1,0%,2.8,7.2,0.66,0.8,1.5,i
CCC(C)Sc1ccc([C@H]2N[C@@](Cc3ccccc3)(C(=O)OC)[C@H]3C(=O)N(CC)C(=O)[C@@H]23)cc1 (stereo partly specified),.,4.6,1.6,.,-0.2,-3.2,i
O=S(=O)(Nc1ccccc1Cl)c1ccc(NS(=O)(=O)c2cccs2)cc1,3%,-0.1,4.2,0.66,-1.1,-2.8,i
Cc1ccc(S(=O)(=O)N2CCC(C(=O)NC3CCCCC3C)CC2)cc1 (stereo unspecified),-7%,-1.9,3.2,0.69,5.7,-1.3,i
O=C1CC2C(=O)NCCN2C(=NC(=O)c2ccc(Cl)cc2)N1 (stereo unspecified),.,-9.4,1.3,0.7,0.0,5.3,i
Cc1ccc(S(=O)(=O)N2CCCC2C(=O)NC2CCCCC2)cc1 (stereo unspecified),0%,.,0.1,0.76,-0.9,1.2,.
CC(CCN1CCN(CCO)CC1)c1ccccc1 (stereo unspecified),.,-4.5,5.1,0.67,1.3,0.9,i
O=C(CC1CCCCC1)N=C1SC2CS(=O)(=O)CC2N1c1ccccc1 (stereo unspecified),.,-0.7,5.9,0.68,1.0,-0.8,i
COc1ccc(CNC(=O)c2n[nH]c3ccccc23)cc1OC,.,-0.3,4.0,0.68,1.2,3.0,i
COc1ccc(C(=O)/C=C/C(=O)N(CC(=O)NC2CCCCC2)Cc2cccs2)c(O)c1,.,-0.7,-0.1,0.69,-5.8,8.2,i
O=C(COC(=O)CC1CCCC1)Nc1ccccc1[N+](=O)[O-],-13%,-2.2,5.1,0.7,-2.4,.,i
NC(=O)c1cc(S(=O)(=O)NCCCc2ccccc2)cs1,4%,-1.1,2.0,0.67,5.4,-3.3,i
CCOc1ccccc1OCC(=O)NNC(=S)NC1CCCCC1,0%,0.9,-2.6,0.66,-3.3,5.2,i
COc1ccc(C(CNC(=O)c2ccc(Br)o2)N2CCN(C)CC2)cc1 (stereo unspecified),-3%,-0.7,0.5,0.7,-0.3,1.9,i
CC(C)CCNC(=O)CN(C(=O)CCC(=O)Nc1nccs1)C1CCCCC1,.,0.3,5.4,0.64,-2.4,2.2,i
O=C(NCCCN1CCOCC1)c1cc(-c2ccccc2)nc2ccccc12,-2%,-0.3,-2.6,0.67,1.4,-5.4,i
COc1cccc(CN(C)C(=O)c2ccc(COc3ccc(Cl)cc3)cc2)c1OC,.,2.1,1.7,0.65,-2.3,-1.5,i
CCCn1c(O)c(N=N)c2ccccc21,2%,0.9,5.2,0.69,-1.5,-3.4,i
COc1cc(-c2ccc(NC(=O)c3ccc(C)cc3)c(OC)c2)ccc1NC(=O)c1ccc(C)cc1,2%&29%,.,-73,0.67,1.3,.,.
COc1ccc2c(c1)CN(C)S(=O)(=O)c1ccccc1-2,-10%,-1.1,3.8,0.73,-1.3,.,i
O=C(Nc1ccccc1N1CCCCC1)c1ccc2nccnc2c1,1%,.,0.1,0.7,2.0,-4.0,.
CSCCC(NC(=O)c1ccccc1Br)C(=O)NCC(C)(C)N1CCOCC1 (stereo unspecified),-4%,0.1,2.0,0.69,-1.5,6.6,i
O=C(Nc1ccccc1N1CCCCC1)c1ccc(-c2cccc(Cl)c2)o1,.,-22,-10.0,0.68,3.2,-2.9,i
O=c1oc2ccccc2c(Nc2cc3ccccc3cc2O)c1[N+](=O)[O-],.,-0.5,2.4,0.64,8.3,?,i
Cc1ccc([N+](=O)[O-])cc1-c1[nH]c(-c2ccc(O)c(O)c2)nc1-c1ccccc1,?,.,5.6,0.71,-6.4,3.7,.
CC(=O)c1cccc(OCc2cc(C(=O)NC3CCN(Cc4ccccc4)CC3)no2)c1,.,5.7,8.0,0.67,3.5,2.0,i
COc1ccccc1-c1ncn(Cc2cccc(-c3ccccc3)c2)c1-c1ccco1,.,6.6,.,.,7.6,.,i
CCOC(=O)C1(CCC(C)C)CC(CSc2nc3ccccc3[nH]2)OC1=O (stereo unspecified),-2%,.,1.6,0.65,-0.5,1.0,.
Cc1ccc2ncccc2c1NS(=O)(=O)c1ccccc1,-1%,.,3.1,0.71,-0.1,5.4,.
CC(=O)Nc1ccc(NC(=O)C23CC4CC(C2)CC(n2cnc(Br)n2)(C4)C3)cc1,?,-4.2,-0.1,0.68,4.0,.,i
CC1CCCCN1CC(=O)Nc1ccc2c(c1)OCO2 (stereo unspecified),15%,-3.8,0.0,0.65,-1.6,.,i
COc1cccc(NC(=O)c2cccnn2)c1,-3%,-11,0.4,0.67,1.1,0.3,i
O=c1[nH]c(/C=C\c2ccc(O)c(O)c2)nc(O)c1[N+](=O)[O-],33%,0.1,.,.,-1.3,-3.6,i
O=C(/C=C/c1ccc([N+](=O)[O-])cc1)NCCSc1ccccc1,0%,.,3.1,0.62,-2.2,-2.0,.
O=C(CCCCCNc1nc(=S)[nH]c2ccccc12)NCCc1c[nH]c2ccccc12,.,1.4,1.7,0.69,1.0,-0.1,i
COc1cccc(N2C(=NC(=O)CCc3ccccc3)SC3CS(=O)(=O)CC32)c1 (stereo unspecified),-7%,-1.1,5.6,0.69,1.8,-2.9,i
O=S(=O)(Nc1nccs1)c1ccc2c(c1)OCCO2,12%,.,3.3,0.67,4.3,3.7,.
COc1cccc(NC(=O)COC(=O)CCCc2c[nH]c3ccccc23)c1,-1%,.,1.9,0.74,7.7,-0.2,.
O=C(/C(=C(\O)c1ccccc1)c1ncc[nH]1)c1ccccc1,4%,-1.3,6.8,0.67,9.8,0.0,i
CC(=O)NCCNC(=O)C1Cc2c(-c3ccc(Cl)cc3)ccnc2O1 (stereo unspecified),.,1.1,.,.,-0.6,.,i
O=C(CSc1nnnn1-c1ccccc1)NCCCN1CCCC1=O,-8%,0.5,0.0,0.65,4.0,.,i
Cc1ccc(CNC(=O)C2CC(c3ccccc3[N+](=O)[O-])=NO2)o1 (stereo unspecified),2%,-0.3,-0.2,0.62,4.7,4.5,i
Fc1ccc(-c2nnn(Cc3ccc(F)cc3Cl)n2)cc1,0%,0.1,2.4,0.68,-3.3,-2.0,i
CC(=O)Nc1cc(-c2cccc(C(=O)NCCN(C)C)c2)cn2c(-c3ccc(C(C)=O)cc3)cnc12,.,5.0,.,.,3.3,.,i
CCOc1cc(C2c3c(oc4cc(C)c(Cl)cc4c3=O)C(=O)N2Cc2ccco2)ccc1O (stereo unspecified),-5%,.,5.7,0.73,2.6,-2.7,.
Cc1ccc(NC(=O)CCCc2nc3ccccc3c(=O)[nH]2)c(Cl)c1,-5%,-0.9,3.4,0.69,-2.2,.,i
CCOC(=O)c1ccc(N2C(=O)c3n[nH]c(C)c3C2c2ccccn2)cc1 (stereo unspecified),0%,-4.5,5.6,0.72,3.1,4.6,i
Cc1cccc(NC(=O)CSc2nnc(Cc3ccccc3)o2)c1,?,-3.1,3.8,0.71,-3.0,?,i
